Anesthetic bind – candidate novel general anesthetic via apoferritin binding | actives 0.074% (n = 350,000) | P02791 | apoferritin/1-aminoanthracene competitive binding, fluorescence | Potency, µM (series often up to 77.5 µM), without a hit: top-dose activity change, negative = displacement, most hits filed as inhibitors; active = well fitted inhibition curve with a large enough effect; inconclusive = small, poorly fitted or top-dose-only effect; inactive = no such curve, though single readings can be large or run the other way; also: potency is read from the fitted curve at half-maximal effect; % is scaled to controls: 0 for no effect and ±100 for the full control effect; nearly all actives have a fitted effect of over 20% in size
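In PBS, apoferritin at 10 uM is loaded with 1-AMA from a 50% saturated solution. After 10 min of compound exposure at ambient temperature, reduced 535 nm fluorescence indicates probe displacement.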
D1 agonist – human D1 receptor agonism; P21728; HEK293 T-REx D1 cells, calcium flux, agonist mode; activation, % at 2 µM; actives 1% (n = 360,000); AID 504660; also: 0% is about no effect
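Inducible HEK293 T-REx D1 cells, force-coupled to calcium signalling, were plated at 4000 cells/well with tetracycline and held overnight at 30 C. After no-wash calcium dye loading, compound-evoked calcium rise over 180 s flagged agonists.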
D2 potentiator – positively modulates the human D2 dopamine receptor allosterically. HEK293 T-REx D2, calcium flux, EC20 dopamine potentiation. potentiation, % at 10 µM. actives 0.34% (n = 340,000). AID 485347;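 active = potentiation over 3 SD above the plate norm, cut at about 30% in these data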; also: 0% is about no effect
Target sequence (P14416 whole entry, looked up): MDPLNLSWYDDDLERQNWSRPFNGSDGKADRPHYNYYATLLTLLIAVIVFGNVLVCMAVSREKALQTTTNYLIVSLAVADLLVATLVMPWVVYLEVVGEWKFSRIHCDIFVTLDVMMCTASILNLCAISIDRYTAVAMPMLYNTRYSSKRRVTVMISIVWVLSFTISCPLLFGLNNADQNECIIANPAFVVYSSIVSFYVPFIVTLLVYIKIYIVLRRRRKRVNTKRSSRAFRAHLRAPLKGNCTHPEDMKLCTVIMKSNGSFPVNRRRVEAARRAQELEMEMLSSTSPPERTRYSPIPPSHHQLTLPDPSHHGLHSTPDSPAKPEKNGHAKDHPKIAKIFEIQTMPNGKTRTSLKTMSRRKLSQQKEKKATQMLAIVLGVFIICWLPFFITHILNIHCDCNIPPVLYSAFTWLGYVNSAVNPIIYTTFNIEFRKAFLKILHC
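Calcium flux readout, no-wash dye, 1 read/s. Inducible HEK293 Trex D2 line, overnight 30 C. Compound alone 180 s (agonist flags), then EC20 dopamine, another 180 s to score potentiation.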
TRHR ag – agonists of human TRH receptor; P34981; TRHR cells, calcium flux fluo-8, FDSS agonist mode; activation, % at 2 µM; actives 0.18% (n = 360,000); AID 493084; also: 0% is about no effect
Target sequence (P34981 whole entry, looked up): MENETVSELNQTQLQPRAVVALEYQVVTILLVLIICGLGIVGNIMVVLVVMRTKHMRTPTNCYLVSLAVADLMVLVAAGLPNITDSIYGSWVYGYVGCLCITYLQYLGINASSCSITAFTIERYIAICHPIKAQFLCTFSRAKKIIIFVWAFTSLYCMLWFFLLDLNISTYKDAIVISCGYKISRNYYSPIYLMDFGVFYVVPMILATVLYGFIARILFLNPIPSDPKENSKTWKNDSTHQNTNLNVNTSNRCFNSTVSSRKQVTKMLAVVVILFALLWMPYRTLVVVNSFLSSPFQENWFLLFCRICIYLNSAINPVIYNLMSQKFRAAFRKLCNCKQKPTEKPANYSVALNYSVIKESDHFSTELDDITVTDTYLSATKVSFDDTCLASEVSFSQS
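Steps: seed TRHR cells overnight; add fluo-8 no-wash Ca dye, RT 30 min–1.5 h; record 10 s baseline; pin-transfer compounds; monitor fluorescence 1 cycle/s for the agonist window. Calcium increases flag candidate agonists.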
D1 antag – human D1 dopamine receptor antagonism; HEK293 TREx D1 cells, calcium flux, dopamine EC80; active compounds read low; activity change, negative = inhibition, % at 10 µM; actives 3.2% (n = 360,000); in the data active = activity change below about -30%; also: % is scaled to controls: 0 for no effect and ±100 for the full control effect
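Tetracycline-induced HEK293 Trex D1 cells, force-coupled to calcium, dye-loaded; compounds added and read 180 s, then EC80 dopamine added and calcium flux tracked kinetically another 180 s.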
D1 PAM – potentiators of human D1 dopamine receptor | HEK293 TREx D1 cells, calcium flux, dopamine EC20 potentiation | potentiation, % at 10 µM | actives 0.036% (n = 360,000); in the data active = potentiation above about 30%; also: 0% is about no effect
TRHR enhancer – TRH receptor (human) allosteric enhancement. enhancement, % at 2 µM. actives 0.66% (n = 360,000). TRHR cells, fluo-8 calcium fluorescence, EC20 TRH enhancement. P34981; in the data active = enhancement above about 30%; also: 0% is about no effect
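TRHR-expressing cells loaded with fluo-8 calcium dye were read kinetically (ex 480/em 530) during compound addition, then stimulated with an EC20 of TRH (10 nM final). Enhancement of the Gq-mediated intracellular calcium response was scored.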
* hit, by the source's call; ? = inconclusive; / = no result given; & = joins results of further samples; ! = not active in a repeat; [ ] = remark or other dose. Rule as the data show it, unless noted: active = activation above about 30%; inactive = the rest. Not all compounds are listed; count on the stated rates, not on these rows.

item	SMILES	D1 antag	D2 potentiator	D1 PAM	D1 agonist	TRHR enhancer	Anesthetic bind	TRHR ag
1	CCOC(=O)Nc1cccc(NC(=O)c2cc(OC)cc(OC)c2)c1	-13	3	-2	-1	0	-5%	0.7
2	CC(C)(C)N(Cc1ccccc1)C(=O)c1ccc2c(c1)OCCO2	2	8	-3	2	1	?	0.1
3	COc1ccc(-n2c3c(c(=O)[nH]c2=O)C(NC(C)=O)(C(F)(F)F)C(=O)N3)cc1 (stereo unspecified)	-54*!	2&-6	-3&0	2&3	2&-2	-2%&0%	0.6&0.6
4	CSc1nnc(N2C(=O)C(O)=C(C(=O)c3ccc(C)o3)C2c2ccc(C)cc2)s1 (stereo unspecified)	-5	-5	-5	9	1	-13%	2.9
5	COc1ccc(OC)c(C(=O)CSc2nnc(-c3cccs3)n2C)c1	3	-9	2	27	-2	-24%	-0.4
6	COC(=O)c1cc(OC)c(OC)c(OC)c1NC(=O)c1cc(=O)n(C)c(=O)n1C	-11	6	-1	-1	5	9%	2.1
7	Cc1nn(-c2ccccc2)c2[nH]c(=O)c(CNCc3ccc4c(c3)OCO4)cc12	8	0	-1	1	1	-12%	-0.5
8	CCOC(=O)c1c(NC(=O)COc2cccc(C(F)(F)F)c2)sc2c1CCC(C)C2 (stereo unspecified)	4	-4	0	1	2	3%	-1.0
9	CCOc1ccc(-c2cc(C(F)(F)F)c(C#N)c(SCC(=O)Nc3ccccc3)n2)cc1	-52*	-10	-3	32*	7	9%	8.8
10	CC(=O)c1sc(NC(=O)COc2ccc(C(C)C)c(C)c2)nc1C	-14	12	-9	7	-4	-8%	-0.1
11	O=S1(=O)N=C(Nc2nc3c(s2)CCCC3)c2ccccc21	-11	/	-5	-1	-2	4%	0.0
12	COc1cc([N+](=O)[O-])c(OC)cc1SCc1n[nH]c(=S)n1-c1ccc(C)cc1	7	8	8	1	4	-15%	0.0
13	Cc1nnc(NC(=O)CSc2ccccn2)s1	5	1	-1	0	8	-11%	1.4
14	CC(=O)C(Sc1ccc2nnc(-c3cccnc3)n2n1)C(C)=O	-1	-5	-2	2	-1	-6%	0.5
15	C=CCOc1nc2c(c(=O)n(C)c(=O)n2C)n1Cc1ccc(Cl)cc1Cl	-2	7	-3	3	14	-1%	-1.3
16	O=C(CSc1ccc2nnc(-c3cccnc3)n2n1)c1ccccc1	-15	-2	-1	5	5	-7%	-0.4
17	NS(=O)(=O)c1c(Sc2ccccc2C(=O)O)ccc2ccccc12	2	-2	-3	-1	0	-8%	0.5
18	O=C(Nc1cnc2sccn2c1=O)c1ccccc1Cl	-1	3	-5	3	6	-2%	-0.3
19	CCOc1ccc(NC(=O)CSc2nc3c(oc4ccccc43)c(=O)n2-c2ccccc2C)cc1	8	2	-5	1	6	-2%	0.3
20	Cc1c(Cl)cccc1NC(=O)CSc1ncnc2c1sc1ccccc12	18	6	-1	-1	11	35%[activator]	0.4
21	CCN(CC)CC(=O)Nc1ccc2c(c1)Nc1ccccc1CC2	-13	-24	1	14	4	?	1.1
22	O=C(Cn1c2ccc(F)cc2c2nc3n(c(=O)c21)CCS3)NCC1CCCO1 (stereo unspecified)	15	3	1	-2	-8	1%	0.1
23	O=C(Nc1cccc(Cl)c1)c1cc(-c2ccc3c(c2)OCO3)on1	9	2	1	3	4	1%	1.6
24	O=S(=O)(NCC(c1ccccc1)N1CCNCC1)c1ccc(Cl)cc1 (stereo unspecified)	-3	-3	0	8	20	-9%	-1.1
25	CCN(CC)S(=O)(=O)c1ccc(N2CCOCC2)c(NC(=O)c2ccc(=O)n(C)n2)c1	-7	12	-8	0	1	/	0.4

Some entries already given, showing only Anesthetic bind and TRHR enhancer:
nr	mol	Anesthetic bind	TRHR enhancer
25	CCN(CC)S(=O)(=O)c1ccc(N2CCOCC2)c(NC(=O)c2ccc(=O)n(C)n2)c1	/	1
20	Cc1c(Cl)cccc1NC(=O)CSc1ncnc2c1sc1ccccc12	35%[activator]	11

(further entries)
item	SMILES	D1 antag	D2 potentiator	D1 PAM	D1 agonist	TRHR enhancer	Anesthetic bind	TRHR ag
26	Cc1cccc(N2C(N)=NC(N)=NC23CCCCC3)c1	-13	5	-9	3	4	7%	-0.8
27	COC(=O)C1=NN(c2ccc(C)cc2)C2C(=O)N(c3ccccc3OC)C(=O)C12 (stereo unspecified)	-16	4	-1	1	-2	56%[activator]	-0.1
28	N#Cc1c(C(F)(F)F)cc(-c2cccs2)nc1SCC(=O)Nc1ccc(Cl)cc1	6	-11	2	81*	-2	143%[activator]	14
29	O=C(NCc1cccs1)C1CCCN(c2nc3ccccc3o2)C1 (stereo unspecified)	-46*	5	-4	1	-16	-5%	1.0
30	CCC(C)(C)NS(=O)(=O)c1cc(CN2C(=O)c3cccnc3C2=O)ccc1OC	-3	-2	-3	2	20	13%	0.6
31	CCOc1ccc(-c2cc(C(=O)O)c3ccccc3n2)c(OCC)c1	-7	-1	-4	1	-2	-16%	0.4
32	O=C(CCN1CCCC1)c1cccs1	-16	-2	-1	4	-3	32%[activator]	-1.4
33	Cc1cc(C)cc(NC(=O)CSc2nncn3c2cc2occc23)c1	11	-24	-1	0	-2	-20%	1.7
34	Fc1ccc(CSc2ncnc3c2oc2ccccc23)cc1	2	2	-2	4	9	5%	0.4
35	Cc1nc(NC(=O)c2ccccc2)sc1Cc1ccc2c(c1)OCO2	8	8	2	3	3	-3%	0.1
36	CC(=O)Nc1cccc(/C(C)=N/NC(=O)c2ccc(NS(=O)(=O)c3cccs3)cc2)c1	5	6	0	1	5	-17%	0.0
37	O=S(=O)(c1ccccc1Cl)N1CCC(O)(c2ccc3c(c2)OCO3)CC1	-28	-13	-5	6	-5	-14%	0.4
38	CCCOc1ccc(C(=O)C(CN2CCCC2)c2ccccc2)cc1 (stereo unspecified)	-6	5	-7	10	2	?	1.5
39	COc1ccc(Cl)cc1NC(=O)c1cn(C2CCCC2)c(=O)c2c1c1ccccc1n2C	4	-2	1	2	-3	-8%	0.3
40	CCc1nnc(SCc2nc(-c3cccc(Cl)c3)oc2C)c2cc3sc(C)cc3n12	7	-2	1	0	3	-3%	0.1
41	CCOC(=O)N1CCN(C(=O)CCCCn2c(=S)[nH]c3ccsc3c2=O)CC1	21	8	-2	1	-7	-7%	-0.9
42	CC1CN(C(=O)C2CC(=O)N(c3ccc(Cl)cc3)C2)CC(C)O1 (stereo unspecified)	-9	2	0	3	1	3%	0.3
43	O=C(Nc1nc2ccccc2n1CCN1CCCC1)c1ccc(Cl)cc1	9	-22	-1	1	3	-12%	-0.2
44	COc1ccc(C(=O)N2CCC(n3c(C)nc4cc(F)ccc43)CC2)cc1OC	16	3	-9	1	17	-10%	0.3
45	O=c1cc(C23CC4CC(CC(C4)C2)C3)[nH][nH]1	18	-8	-1	4	5	?	2.1
46	O=C(COC(=O)c1ccccc1C(=O)c1ccccc1)c1ccco1	-29	-2	0	1	-3	-16%	0.1
47	Cn1c(SCC(=O)NC2CC2)nnc1-c1cccs1	-16	-2	-7	6	10	-17%	1.5
48	Cc1cc(C)c(C#N)c(SCC(=O)Nc2cccc(S(=O)(=O)N3CCCC3)c2)n1	12	-2	-3	1	-2	/	0.5
49	CCc1cccc(NC(=O)Cn2c(=O)c3cccn3c3ccccc32)c1	-10	3	-3	8	0	-14%	0.2
50	CCOC(=O)c1sc(=S)n2c1[nH]c(=O)c1ccc(C(=O)OC)cc12	-10	3	-7	2	-5	-9%	-0.1
51	O=C(Cn1cnc2c(oc3ccccc32)c1=O)NCC1CCCO1 (stereo unspecified)	-15	-5	-6	-2	0	-4%	0.1
52	O=C1CCCC(=O)C1C(c1ccc(Cl)cc1)C1C(=O)CCCC1=O	4	1	-1	2	2	/	-2.3
53	Cc1cc(SCC(=O)NC2CCCCC2)nc2ccccc12	0	12	-15	6	-5	2%	-0.2
54	COc1ccc(/C(O)=C2\C(=O)C(=O)N(c3cc(C)on3)C2c2ccc(OC)c(OC)c2)cc1OC (stereo unspecified)	12	-3	-6	3	-4	-22%	0.7
55	COC(=O)c1c(-c2ccc(Cl)cc2)noc1N1CCN(c2ccc(C(C)=O)cc2)CC1	-3	6	-2	2	5	-1%	0.4
56	COc1ccc(/C=C/C(=O)Nc2sc3c(c2C(=O)NCc2cccnc2)CCCC3)cc1	-16	8	0	-2	3	-8%	0.2
57	Cc1nnc(SCC2CCCO2)n1-c1ccccc1 (stereo unspecified)	-5	0	1	3	-8	-8%	0.3
58	COC(=O)c1cc2ccsc2n1Cc1cc(=O)n2ccccc2n1	1	22	-4	2	3	-23%	-0.3

Another view of some results above.
(53) Cc1cc(SCC(=O)NC2CCCCC2)nc2ccccc12
  D1 antag: 0; D2 potentiator: 12; D1 PAM: -15; D1 agonist: 6; TRHR enhancer: -5; Anesthetic bind: 2%; TRHR ag: -0.2

(54) COc1ccc(/C(O)=C2\C(=O)C(=O)N(c3cc(C)on3)C2c2ccc(OC)c(OC)c2)cc1OC (stereo unspecified)
  D1 antag: 12; D2 potentiator: -3; D1 PAM: -6; D1 agonist: 3; TRHR enhancer: -4; Anesthetic bind: -22%; TRHR ag: 0.7

(55) COC(=O)c1c(-c2ccc(Cl)cc2)noc1N1CCN(c2ccc(C(C)=O)cc2)CC1
  D1 antag: -3; D2 potentiator: 6; D1 PAM: -2; D1 agonist: 2; TRHR enhancer: 5; Anesthetic bind: -1%; TRHR ag: 0.4

(56) COc1ccc(/C=C/C(=O)Nc2sc3c(c2C(=O)NCc2cccnc2)CCCC3)cc1
  D1 antag: -16; D2 potentiator: 8; D1 PAM: 0; D1 agonist: -2; TRHR enhancer: 3; Anesthetic bind: -8%; TRHR ag: 0.2

Assay outcomes (PubChem BioAssay)
